Screening results: PubChem BioAssay, National Center for Advancing Translational Sciences (NCATS)
Cruzain inh Det: cruzain (T. cruzi) inhibition with detergent; P25779; purified cruzain, Z-FR-AMC fluorescence, 0.01% Triton; Potency, µM, inactives show max response, negative = inhibition, actives largely listed as inhibitors; 0.43% of 200,000 active; AID 1478;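 note: plate controls were neutral wells for no effect and buffer without enzyme for full effect; nearly all actives have a fitted effect of over 40% in size; top concentration of the series not given in the record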
Target sequence (P25779 123-467 limits assumed): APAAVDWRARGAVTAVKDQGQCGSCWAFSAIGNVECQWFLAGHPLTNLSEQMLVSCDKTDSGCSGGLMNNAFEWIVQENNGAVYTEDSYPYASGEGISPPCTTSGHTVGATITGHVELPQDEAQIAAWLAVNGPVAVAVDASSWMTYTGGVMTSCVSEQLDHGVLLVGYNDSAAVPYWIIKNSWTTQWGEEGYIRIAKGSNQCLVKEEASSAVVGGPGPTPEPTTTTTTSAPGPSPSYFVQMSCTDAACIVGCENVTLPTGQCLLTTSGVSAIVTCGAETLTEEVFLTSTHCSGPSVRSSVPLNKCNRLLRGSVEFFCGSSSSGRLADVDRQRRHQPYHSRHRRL
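Compounds were screened in titration against cruzain (1.5 nM) with 0.01% Triton X-100 to counter colloidal aggregation. Activity was the AMC fluorescence increase over 60 s after adding 2 uM Z-FR-AMC at pH 5.5.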
Cruzain inh noDet: cruzain (T. cruzi) inhibition without detergent. AID 1476. purified cruzain, Z-FR-AMC fluorescence, no detergent. P25779. 2.3% of 200,000 active. Potency, µM, without a hit: max response, negative = inhibition, hits mostly inhibitors;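 note: plate controls were enzyme without inhibitor for no effect and buffer without enzyme for full effect; nearly all actives have a fitted effect of over 40% in size; top concentration of the series not given in the record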
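Detergent-free condition (0.00005% Triton X-100) in acetate buffer pH 5.5 with DTT. 1.5 nM enzyme and compound were pre-mixed 15 min, then 2 uM Z-FR-AMC substrate added; reaction progress from fluorescence change between first and third reads (60 s).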
SARS PLP yeast: inhibitors of SARS-CoV papain-like protease in yeast. S. cerevisiae expressing SARS-CoV PLpro, growth rescue; control for the full effect not named in the record. Potency, µM (series often up to 32.9 µM), for inactives: top-dose activity, positive = growth rescue. 0.19% of 330,000 active; active means well fitted rising curve with a large enough effect; inconclusive means small, poorly fitted or top-dose-only effect; inactive means no such curve, though single readings can be large or run the other way; note: 0% is about no effect; nearly all actives have a fitted effect of over 55% in size; growth read by luminescence after 48 h
LASV entry inh: inhibitors of Lassa virus binding or cell entry; Lassa virus pseudotype entry inhibition, cell reporter; control for the full effect not named in the record; Potency, µM (titrated, usually from 37.9 µM), for inactives: at the highest dose activity change, negative = inhibition, hits mostly inhibitors; 1.2% of 300,000 active; AID 540256; active means well fitted inhibition curve with a large enough effect; inconclusive means small, poorly fitted or top-dose-only effect, or effect the other way; inactive means flat fitted curve, though single readings scatter; tested in HEK293 cells; note: % is set by controls: 0 for no effect and ±100 for the full control effect; nearly all actives have a fitted effect of over 50% in size; luciferase read-out
NS1 inh: influenza NS1 inhibition | S. cerevisiae slowed by influenza A NS1, growth recovery by OD600 | AID 2326 | Potency, µM (titrated, usually from 46.1 µM), for the others: at the top dose activity, positive = more growth | 0.4% of 270,000 active; active means well fitted rising curve with a large enough effect; inconclusive means small, poorly fitted or top-dose-only effect; inactive means no such curve, though single readings can be large or run the other way; note: nearly all actives have a fitted effect of over 50% in size
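OD600 was taken as the measure of yeast growth restored by compound in an NS1-expressing S. cerevisiae strain. Cells had been washed out of glucose medium and diluted 1:100 into galactose -URA medium, pH 6.0.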
MARV entry inh: Marburg virus entry inhibition. Marburg virus pseudotyped entry inhibition, cell reporter; control for the full effect not named in the record; about a third of the inactives were read at about 46 µM. Potency, µM (series often up to 37.8 µM), inactives show at the top dose activity change, negative = inhibition, hits mostly inhibitors. 1.8% of 300,000 active. AID 540276; active = well fitted inhibition curve with a large enough effect; inconclusive = small, poorly fitted or top-dose-only effect, or effect the other way; inactive = flat fitted curve, though single readings scatter; tested in HEK293 cells; about a fifth of its hits are not listed in these tables; note: % is set by controls: 0 for no effect and ±100 for the full control effect; luciferase read-out
2A StopGo: FMDV 2A StopGo reporter, luciferase signal. human cells with a luciferase reporter of 2A StopGo recoding; control for the full effect not named in the record. Potency, µM (top dose mostly 57.9 µM), without a hit: top-dose signal change, negative = less light. 1.2% of 410,000 active. AID 1159524; active = well fitted falling curve with a large enough effect; inconclusive = small, poorly fitted or top-dose-only effect; inactive = no such curve, though single readings can be large or run the other way; tested in HEK293T cells; note: % is set by controls: 0 for no effect and ±100 for the full control effect; nearly all actives have a fitted effect of over 45% in size; luciferase light after 4 h
RE007 growth inh: less growth of the S. pombe RE007 Vpr strain | AID 651644 | 0.21% of 360,000 active | Potency, µM (doses to about 92.2 µM), for the others: at the top dose activity change, negative = less growth | S. pombe RE007 Vpr strain, BacTiter-Glo ATP luminescence, 24 h; control for the full effect not named in the record; active = well fitted falling curve with a large enough effect; inconclusive = small, poorly fitted or top-dose-only effect; inactive = no such curve, though single readings can be large or run the other way;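 note: % is set by controls: 0 for no effect and ±100 for the full control effect; nearly all actives have a fitted effect of over 50% in size; the assay follows cell death caused by Vpr and the record does not say whether a fall means rescue or toxicity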
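Fission yeast RE007 carrying one integrated HIV-1 vpr copy, seeded at OD 0.01 in PMG+AL medium with 23 nL pinned compound. Grown 24 h at 30 degrees; viability read by BacTiter-Glo luminescence after 5 min.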
Active calls of the source: *; ? = inconclusive; . = no result given; & = joins results of further samples; [ ] = remark or other dose. Unless noted, calls come from the whole dose curve; as a rule, active = well fitted curve in the direction sought with a large enough effect; inconclusive = small, poorly fitted or top-dose-only effect, or another doubt; inactive = no such curve, though single readings can be large; an effect the other way counts as inactive or inconclusive. Potency is the fitted concentration of half-maximal effect.

Below each SMILES – Cruzain inh Det, Cruzain inh noDet, SARS PLP yeast, LASV entry inh, NS1 inh, MARV entry inh, 2A StopGo, RE007 growth inh
COC(=O)C(C)Sc1nc2c(c(=O)[nH]c(=O)n2C)n1CCC(C)C (stereo not drawn)
    -1.8%, 3%, 12%, -2%, -3%, 10%, -3%, 15%
CC(C)CCOc1ccc(C(=O)N2CCCC2C(=O)O)cc1 (stereo not drawn)
    ., ., 0%, 7%, 0%, 2%[14.2 µM], -2%, 12%
COCCC(=O)N1CCC(Oc2ccc(C(=O)N3CCCC(OC)C3)cc2)CC1 (stereo not drawn)
    ., ., -2%, ., 12%, ., -5%, 3%
CC(C)N1CCN(Cc2ccccc2-c2ccco2)CC1CCO (stereo not drawn)
    ., ., 0%, ., 5%, ., 0%, -12%
Cc1noc(C)c1CSCC(=O)OCc1nc2ccccc2c(=O)n1CC#N
    -3.2%, -23%, 6%, -1%, 7%, -10%, -17%, 0%
COC(=O)c1ccccc1NC(=O)CSc1[nH]c(=O)cc(C)c1C#N
    ., ., 0%, -13%, 0%, -1%[46.1 µM], -1%, 5%
CC(c1ccccc1)C1NC(C(=O)O)CS1 (stereo not drawn)
    2.6%, -2%, -3%, 3%, 11%, 1%, -6%, 12%
Cn1c(=O)c2c(nc(N3CCOCC3)n2C/C=C/c2ccccc2)n(C)c1=O
    ., ., 0%, 11%[46.1 µM], 0%, -9%[46.1 µM], -8%, 8%
O=C(NCc1ccccc1)c1ccc2nc(CCc3ccccc3)oc2c1
    -5.5%, -13%, ., 5%[46.1 µM], ., ., 33%[activator], .
CCOc1ccc(CCNC(=O)COC(=O)c2cccnc2SC)cc1OCC
    ., ., 0%, 4%, ., -23%, -14%, 3%
Brc1ccc(OCCCCCN2CCOCC2)cc1
    ., ., 1%, ., ., 13%[46.1 µM], 3%, 2%
Cc1c2cnn(-c3ccccc3)c(=O)c2c(C)n1CC(=O)N1CCN(c2cccc(Cl)c2)CC1
    -2.5%, ?, ., -16%[46.1 µM], ., -13%[46.1 µM], -10%, .
COc1ccc(COn2nnc3ccc(S(=O)(=O)N4CCOCC4)cc32)cc1F
    ., ., -1%, 8%, ., 5%[46.1 µM], -10%, 11%
CCOc1ccc(Br)c(C2(O)CC(C)N(C)CC2C)c1 (stereo not drawn)
    0.8%, -5%, 6%, -30%, -5%, ?, 0%, 3%
CC1CCN(Cc2nnnn2CCCC(=O)NCCN2CCOCC2)CC1
    ., ., -4%, -3%, 6%, 3%, 0%, -15%
COc1ccc(OC)c(NC(=O)c2ccc3nc(C(C)C)oc3c2)c1
    -4.2%, -1%, ., -12%[46.1 µM], ., ., 9%, .
O=C(COC(=O)c1ccc(Cl)nc1)Nc1cc(S(=O)(=O)N2CCOCC2)ccc1Cl
    ., ., 2%, 14%, ., ?, -9%, 20%
COc1cc(C=C2C(=O)NC(=O)NC2=O)ccc1OCc1ccc([N+](=O)[O-])cc1
    ., ., 0%, 3%, ., 55%[46.1 µM], 70%[activator], 19%
Nc1ccc(OCc2ccccc2)cc1[N+](=O)[O-]
    ., ., ., 28%[46.1 µM], ., ?, 23%, -13%
O=C(Cn1c(C(F)(F)F)nc2ccccc21)NCCCN1CCOCC1
    0.7%, -8%, ?, 8%, 4%, -5%, -15%, 0%[3.69 µM]
O=C(Nc1cccc(C(F)(F)F)c1)C1CCCN1S(=O)(=O)c1cccc2nsnc12 (stereo not drawn)
    -1.1%, -1%, ., ?, ., ?, ?, .
Cc1nn(S(=O)(=O)c2ccc(F)cc2)c(C)c1S(=O)(=O)N1CCCCC1
    -1.0%, 1%, -1%, 26%&7%[46.1 µM], 15%, 19%&19%[46.1 µM], -1%&15%, 6%
CCN(CC)S(=O)(=O)c1cc(NC(=O)CCNC(=O)c2ccccc2Cl)ccc1C
    -2.1%, -15%, -4%, -18%, -10%, ?, ?, 8%
COc1cc(C2c3c(-c4ccccc4O)n[nH]c3C(=O)N2Cc2ccco2)ccc1OCC(C)C (stereo not drawn)
    -15%, ?, ., ?, ., ?, -21%, .
O=C(Nc1ccccc1N1CCOCC1)C1CCN(S(=O)(=O)c2ccccc2F)CC1
    0.0%, 27%, 13%, -14%, -7%, 0%, -12%, 8%
O=C(CN1C(=O)C2CCCCC2C1=O)OCc1nnc(-c2ccccc2)o1 (stereo not drawn)
    ., ., -3%, ?, ., -18%[46.1 µM], 32%[activator], 7%
COc1cccc2c(=O)c3cccc(N)c3[nH]c12
    -14%, -15%, -29%, 2%, 20%, ?, 0%, 3%
COc1ccc(C2CC(=O)C(CS(=O)(=O)c3ccccc3)C(=O)C2)cc1 (stereo not drawn)
    ., ., 1%, -16%, ., 5%[46.1 µM], -19%, 0%
COc1cc(CCC(=O)OCC(=O)NC2CCCC(C)C2C)cc(OC)c1OC (stereo not drawn)
    ., ., -6%, 2%, ., -1%, -4%, 5%
c1ccc(CN2CCN(CCOCCOc3ccc4c(c3)CCC4)CC2)cc1
    ., ., 0%, ?, 0%, ?, ?, -9%
CCOC(=O)C(C)Oc1cccc2c(=O)n(CC(=O)NCCc3ccc(OC)c(OC)c3)ccc12 (stereo not drawn)
    -1.3%, 11%, -1%, -2%, 10%, 5%, -9%, 7%
CCN1CCN(CC(=O)N2N=C(c3ccc(OC)cc3)CC2c2ccc(OC)cc2)C(=O)C1=O (stereo not drawn)
    ., ., -4%, ., ., 4%[46.1 µM], -1%, 3%
O=C(Nc1ccc(Br)cn1)c1coc(=O)c(Br)c1
    ., ., -2%, 4%, 5%, 16%[46.1 µM], 13%, -1%
CCC(=O)N1CCc2cc(Br)cc(S(=O)(=O)CCC(=O)NCc3ccccc3)c21
    -0.7%, 4%, ., 1%[46.1 µM], ., -23%[46.1 µM], -20%, .
COCCN(C(=S)Nc1ccccc1C)C(C)c1ccco1 (stereo not drawn)
    ., ., 5%, ., -4%, ., 2%, 0%
CN(Cc1c(F)cccc1Cl)C(=O)CNC(=O)c1ccc2c(c1)OCO2
    ., ., -3%, ?, ., 25%, 30%[activator], 48%
CCN=c1scc(-c2ccccc2)n1/N=C/c1ccccn1
    -8.5%, -4%, -51%, 1.5µM*, -33%, ?, ?, -8%
O=C1CC(N2CCCCCC2)C(=O)N1c1ccc2c(c1)OCO2 (stereo not drawn)
    -1.9%, 9%, -23%, -6%, -41%, 18%, ., 6.3µM*
COc1ccc(C(=O)Nc2ccc(Cl)cc2C(=O)N2CCOCC2)cc1
    ., ., 9%, -8%, -4%, -15%, 1%, 1%
CC(OC(=O)CNC(=O)COc1ccccc1)C(=O)N(C)Cc1ccccc1 (stereo not drawn)
    ., ., 8%, ?, ., -7%, 0%, -12%
NS(=O)(=O)c1ccc(NC(=O)CSc2nc3ccccc3n2-c2ccccc2)cc1
    -7.2%, -12%, -9%, ?, 12%, ?, -3%, -2%
CC(C)CC(NC(=O)C1CCCCC1)C(=O)Nc1cccc(C(F)(F)F)c1 (stereo not drawn)
    -17%, -10%, ., 7%[46.1 µM], ., -2%[46.1 µM], 17%, .
CCOc1ccc(CCNC(=O)CCc2c(C)nc3c(c(C)nn3-c3ccccc3)c2C)cc1OCC
    2.8%, ?, ., 8%[46.1 µM], ., ?, ?, .
COc1cccc(CN(C)S(=O)(=O)c2ccc3c(c2)OCCO3)c1
    ., ., 0%, -29%, ., 11%, -18%, 7%
Brc1ccccc1-n1nnc(-c2cccnc2)n1
    ., ., -2%, ., -9%, ., 60%[activator], 0%
CCN(CC(=O)N1CCN(Cc2ccccc2)CC1)S(=O)(=O)c1ccc(C)cc1
    ., ., 0%, -2%, -14%, -11%, -7%, 18%
CC(C)[C@@H](C(=O)NCC1CCCO1)N1C(=O)N2CCc3c([nH]c4ccccc34)[C@@]2(C)C1=O (stereo partly drawn)
    ., ., -1%, ., 3%, ., -20%, -1%
O=C(NCCCO)C(=O)Nc1ccc2c(c1)N(S(=O)(=O)c1cccs1)CCC2
    ., ., 0%, -11%, ., -10%, 3%, -12%
N/C(Cc1ccc(Cl)cc1Cl)=N\OC(=O)Cc1cccs1
    -3.1%, 7%, -59%, ?, -20%, 17%, 27%, -21%
Cc1ccc(C)c(NC(=O)c2ccc[n+](Cc3ccc([N+](=O)[O-])cc3)c2)c1
    13%, -6%, -4%, 7%, -5%, 1%, 0%, 6%
COc1ccc(-c2nnc(SCC(=O)N3CCc4ccccc43)o2)cc1OC
    -0.6%, -2%, ., 8%[46.1 µM], ., 11%[46.1 µM], -11%, .
CCCCCCCCCC[n+]1cccc(C(=O)N(CC)CC)c1
    -0.6%, -3%, -16%, 14%, 2%, 19%, 42%[activator], -13%
O=C(Nc1ccc(N2CCCC2)c(S(=O)(=O)Nc2cccc(C(F)(F)F)c2)c1)c1cccs1
    -4.3%, -6%, 2%, ?, 16%, 1.4µM*, 35%[activator], 14%
CC(NCc1ccc2c(c1)OCO2)C(=O)N1CCc2ccccc21 (stereo not drawn)
    3.2%, -8%, -11%, -11%, 2%, 0%, -14%, 8%
CC(C)c1nc(Cl)c(C#N)c2c1CSC(C)(C)C2
    -2.4%, 1%, 20%, -18%, -21%, 10%[46.1 µM], -30%, -12%
COc1ccc(-c2cc(-c3ccccc3)[n+](C)c(-c3ccccc3)c2)cc1
    ., ., -2%, ?, ., 6.3µM*, ?, 4%
CCOc1cc(C(=O)N2CCCC2)cc(OCC)c1OCC
    2.4%, 7%, 8%, 4%, -10%, 6%[46.1 µM], 31%[activator], 4%
Cc1ccc(N2C(=O)[C@@H]3C(C(=O)CN4C(=O)c5ccccc5C4=O)=NN[C@@H]3C2=O)c(C)c1
    ., ., 0%, 1%, -19%, 1%, 3%, 2%
O=C(CSCc1ccccc1Br)NC1CC1
    -2.3%, -8%, 20%, -1%, 24%, -7%, 0%, .
CCc1cc2c3c([nH]c2cc1S(=O)(=O)N1CCC2(CC1)OCCO2)CCCC3=O
    ., ., 11%, ?, 3%, ?, -20%, -5%
